Bioassay records from PubChem BioAssay.
gsp agonist: gsp mutant agonism; gsp mutant cells, cAMP HTRF, 30 min; control for the full effect not named in the record; Potency, µM (series often up to 76.9 µM), without a hit: at the highest dose activation (cAMP increase), actives largely listed as activators; hit rate 0.13% among 340,000; AID 624287; active = well fitted activation curve with a large enough effect; inconclusive = small, poorly fitted or top-dose-only effect, or another doubt; inactive = no such curve, though single readings can be large or run the other way; cell line not stated here;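 also: phosphodiesterase inhibitor Ro 20-1724 added with compounds to block cAMP breakdown; potency is read from the fitted curve at half-maximal effect; nearly all actives have a fitted effect of over 60% in size; about a fifth of the inactives were tested at one dose only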
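Cells stably selected in G418 were plated at 2000/well, grown 16-24 hr, then given compounds in DMSO with the PDE inhibitor […] (300 uM solution added) for 30 min at 37C; cAMP was read by HTRF.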
Menin-MLL FL inh: menin-MLL binding inhibition, fluorescein peptide | AID 1766 | 290,000 tested, under 10 active | Fluorescence polarization, fluorescein-MLL peptide displacement from menin | FP activity change, % at 61.4 µM; inconclusive = falling polarisation curve, or a change in total fluorescence; inactive = total fluorescence flat and polarisation flat or rising; no compound was filed as active; the % refers to the polarisation; negative = inhibition;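 also: % of control where 0% means no effect; inhibitors lower the polarisation; unlabelled MLL peptide was the positive control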
gsp antag: gsp mutant antagonism. gsp-mutant cells, cAMP HTRF, 30 min; control for the full effect not named in the record. AID 624288. Potency, µM (highest dose often 76.9 µM), for the others: at the highest dose activity change, negative = inhibition, hits mostly inhibitors. hit rate 0.4% among 340,000; active = falling curve of any shape with a large fitted effect; inconclusive = falling curve, mostly with a smaller effect; inactive = flat or rising curve; cell line not stated here;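 also: intracellular cAMP measured with PDE inhibitor Ro 20-1724 present during compound exposure; potency is read from the fitted curve at half-maximal effect; % is scaled to controls: 0 for no effect and ±100 for the full control effect; nearly all actives have a fitted effect of over 65% in size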
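Cells, 2000/well, grown 16–24 h in DMEM 10% FBS with 0.5 mg/ml G418, then compounds plus […] (300 uM addition stock), 30 min at 37C. cAMP read by HTRF (cAMP-d2 and anti-cAMP antibody-K in lysis buffer) after 30 min RT.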
Sfp inh: Sfp phosphopantetheinyl transferase inhibition; Q9F4F7; Potency, µM, for the others: max response, negative = inhibition, most hits filed as inhibitors; hit rate 3.5% among 310,000; Biochemical Sfp PPTase activity, qHTS; active = well fitted inhibition curve with a large enough effect; inconclusive = small, poorly fitted or top-dose-only effect, or another doubt; inactive = no such curve, though single readings can be large or run the other way;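 also: the enzyme is Sfp with the accession as filed and its product quenches rhodamine fluorescence; potency is read from the fitted curve at half-maximal effect; 0% = enzyme reaction without inhibitor and -100% = no enzyme wells; top concentration of the series not given in the record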
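After 15 min at room temperature with compound, 15 nM Sfp received 5 uM rhodamine-CoA plus 12.5 uM BHQ-2-ybbR (50 mM Hepes pH 7.6, 10 mM MgCl2). Rate came from the fluorescence difference over 30 min, ex 525/em 598 nm.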
D2 agonist: agonists of human D2 dopamine receptor (beta-arrestin) | P14416 | DiscoveRx PathHunter D2 beta-arrestin, luminescence, 90 min; 100% = 57 uM dopamine signal | activation, % (test concentration not listed) | hit rate 0.084% among 360,000 | AID 624465; in the data active = activation above about 40%; inconclusive = about 15% to 40%; inactive = below about 15%; also: compound concentration not given in the record; the text of the record calls up to 30% inactive
Target sequence (P14416 whole entry, looked up): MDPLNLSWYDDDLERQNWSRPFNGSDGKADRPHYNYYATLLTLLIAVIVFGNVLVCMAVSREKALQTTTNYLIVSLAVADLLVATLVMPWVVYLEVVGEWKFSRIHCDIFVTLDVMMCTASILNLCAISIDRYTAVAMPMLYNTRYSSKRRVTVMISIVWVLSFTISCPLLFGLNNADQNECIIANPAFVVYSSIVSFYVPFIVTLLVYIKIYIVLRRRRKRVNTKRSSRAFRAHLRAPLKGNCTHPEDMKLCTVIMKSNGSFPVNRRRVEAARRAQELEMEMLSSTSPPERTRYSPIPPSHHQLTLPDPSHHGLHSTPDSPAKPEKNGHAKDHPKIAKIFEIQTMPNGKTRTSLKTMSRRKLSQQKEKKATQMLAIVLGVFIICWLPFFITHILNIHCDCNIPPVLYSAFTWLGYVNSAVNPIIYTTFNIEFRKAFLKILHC
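DiscoveRx PathHunter D2 beta-arrestin cells (2,100/well) attached overnight, then compound-stimulated 90 min at 37 C in HBSS/10 mM HEPES/0.1% Tween-20 buffer; beta-galactosidase complementation read by luminescence after 1 h at ambient temperature. Dopamine 57 uM final (EC100) as control.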
ClpP mod: qHTS Assay for Activators of ClpP | ATP-dependent Clp protease proteolytic subunit (Bacillus subtilis (strain 168)), P80244 | purified B. subtilis ClpP, FRET peptide cleavage, 20 min | Potency, µM (titrated, usually from 57.5 µM), without a hit: top-dose activity change, negative = active | hit rate 1.9% among 340,000; active = well fitted falling curve with a large enough effect; inconclusive = small, poorly fitted or top-dose-only effect; inactive = no such curve, though single readings can be large or run the other way; also: potency is read from the fitted curve at half-maximal effect; the source files actives as falling curves though it sought activators and does not explain the sign; nearly all actives have a fitted effect of over 65% in size; many hits overshoot -100%
Target sequence (P80244 whole entry, looked up): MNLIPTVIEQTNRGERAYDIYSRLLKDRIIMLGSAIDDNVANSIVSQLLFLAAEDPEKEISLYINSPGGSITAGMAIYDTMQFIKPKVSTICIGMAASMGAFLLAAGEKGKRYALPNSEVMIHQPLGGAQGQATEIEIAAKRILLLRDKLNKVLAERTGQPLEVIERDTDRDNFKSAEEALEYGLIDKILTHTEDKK
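Purified B. subtilis ClpP, 10 microg/mL final in Tris/HCl pH8 with KCl, BSA, glycerol and Tween-20, cleaved an Abz/nitrotyrosine-quenched decapeptide. Fluorescence (ex 320, em 430) was read at 0 and 20 min at room temperature. Delta was normalized to 5.8 microM ADEP and DMSO/no-enzyme controls.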
PINK1 expr mod: PINK1 expression modulation | PINK1 immunofluorescence, high-content cytometry, 24 h | hit rate 0.2% among 410,000 | Potency, µM (series often up to 76.6 µM), for inactives: at the top dose activation (PINK1 increase), usual class: activators | AID 624263; active = well fitted activation curve with a large enough effect; inconclusive = small, poorly fitted or top-dose-only effect; inactive = flat fitted curve, though single readings scatter; cell line not stated here;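 also: potency is read from the fitted curve at half-maximal effect; % of control where 0% means no effect; nearly all actives have a fitted effect of over 65% in size; a mitochondrial uncoupler was the plate control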
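Readout is PINK1 immunofluorescence, quantified alongside mitochondrial, cell and nuclear markers by laser-scanning microplate cytometry. Cells from a stable line were exposed to compound titrations (5 concentrations) for 24 hours, with CCCP controls.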
Starred values were filed as active, the others as inactive; u = inconclusive; x = no result given; [ ] = dose if it differs, or a comment.

Value order: gsp agonist	Menin-MLL FL inh	gsp antag	Sfp inh	D2 agonist	ClpP mod	PINK1 expr mod
> Cc1ccc(OCCn2c(=O)cnc3ccccc32)cc1
    27.6%	0.1	2.5%	5.7%	3.6	-20.6%	4.2%
> O=C(NNC(=O)c1ccc(=O)[nH]c1)c1ccc(NS(=O)(=O)c2cccs2)cc1
    -10.2%	x	-3.7%	x	1.9	-1.7%	-0.4%
> COc1ccc(NC(C)=O)cc1NC(C)C(=O)Nc1cccc2ccccc12 (stereo not drawn)
    -11.3%	11.7	-14.2%	-2.1%	-5.2	1.4%	1.6%
> CC(C)NC(=O)c1cc(C2CCCCN2C(=O)c2ccc(Cl)cc2)on1 (stereo not drawn)
    x	x	x	x	-2.6	-1.8%	2.0%
> CCOc1ccccc1N1CC(C(=O)Nc2ccc(C(=O)O)cc2)CC1=O (stereo not drawn)
    -26.8%	3.9	2.6%	14.7%	1.1	-1.5%	0.8%
> CCCCC(=O)Nc1nnc(CCc2ccccc2)s1
    u	-0.3	7.1%	-3.0%	-2.7	-20.9%	-0.8%
> Cn1c(=O)[nH]c(=O)c2[nH]c(N(Cc3ccccc3)Cc3ccccc3)nc21
    5.9%	1.9	7.8%	89.1µM*	4.2	-5.9%	-4.8%
> Cc1cccc(N2CC(C(=O)Nc3nnc(SCc4cccnc4)s3)CC2=O)c1 (stereo not drawn)
    -8.7%	9.2	-19.9%	-9.9%	-0.1	-1.4%	-1.0%
> O=C(Nc1cc([N+](=O)[O-])ccc1Cl)C(Sc1ccccc1)c1ccccc1 (stereo not drawn)
    23.8%	3.9	-20.5%	7.8%	0.6	-11.8%	3.6%
> COc1cccc(-c2noc(C3CCCN(C(=O)c4cccc(F)c4)C3)n2)c1 (stereo not drawn)
    u	-0.5	u	15.8%	8.7	1.7%	4.3%
> Cn1c(C(=O)NCCC2=CCCCC2)cc2c(=O)n3ccccc3nc21
    2.8%	3.7	14.3%	0.3%	-3.3	7.94µM*	0.8%
> CC(=O)NNc1ccc(C(F)(F)F)cc1[N+](=O)[O-]
    -32.3%[inhibitor]	-2.3	-2.5%	14.3%	0.7	-0.3%	1.6%[38.3 µM]
> CCOC(=O)c1c(C)n(C)c2ccc(OC)c(NS(=O)(=O)CC)c12
    -22.8%	0.0	1.8%	-5.9%	-1.5	-0.3%	5.2%
> OC1CCCN(CC(O)COC(c2ccc(F)cc2)c2ccc(F)cc2)C1 (stereo not drawn)
    -2.5%	-11.0	12.1%	u	-3.5	x	-0.5%
> CCOC1CC(C)(C)NC(=S)N1 (stereo not drawn)
    16.6%	4.7	15.0%	-6.5%	0.6	-1.6%	3.1%
> NC(=O)C1CCN(CC(=O)Nc2ccc(S(=O)(=O)N3CCOCC3)cc2)CC1
    -15.7%	0.3	6.7%	13.9%	-5.6	x	-1.3%
> OC[C@@H]1CN(Cc2ccncc2)C[C@H](n2cnc3c(NC4CCCC4)ncnc32)O1
    x	x	x	x	-1.2	-0.8%	0.4%
> C=C(C)CN(CC)Cc1c(C(=O)N(C)CCCC)nc2ccccn12
    28.0%[15.4 µM]	-2.9	4.6%	10.6%	-5.7	x	0.1%
> CCOC(=O)c1c(C)[nH]c(/C(C)=N/O)c1C
    8.9%	8.2	1.4%	-10.3%	-2.3	0.2%	0.8%
> COc1ccc(CSc2cccc3cccnc23)cc1[N+](=O)[O-]
    3.1%	x	5.2%	8.6%	0.4	1.8%	0.1%
> CN(CC1COCCO1)c1nc2nonc2nc1N1CCSCC1 (stereo not drawn)
    7.3%[15.4 µM]	-0.4	3.2%	-0.1%	-8.3	x	0.9%
> O=[N+]([O-])c1ccc(Nc2nc(N/N=C\c3ccc4c(c3)OCO4)nc(N3CCCCC3)n2)cc1
    -5.8%	4.6	-13.1%	32.3%[activator]	-0.1	0.8%	-0.4%
> O=[n+]1c2c(n([O-])c3cc(F)ccc31)CCCC2
    20.7%	-2.8	-8.2%	3.5%	-3.4	-0.7%	-0.3%
> COCCNC(=O)[C@@H]1CCCN1S(=O)(=O)c1cccc2cccnc12
    x	x	-2.1%	x	-2.6	1.8%	1.5%
> CCN(CC)S(=O)(=O)c1ccc2[nH]c(=O)[nH]c2c1
    14.1%	-1.0	18.7%	7.4%	-1.3	-2.2%	1.7%
> Cc1noc(C)c1S(=O)(=O)N1CCCC(C(=O)Nc2ccc(Cl)cn2)C1 (stereo not drawn)
    -12.4%	-0.1	-25.0%	13.0%	-3.2	0.4%	-1.1%
> CCOC(=O)CNC(=O)C(CC(N)=O)NC(=O)OC(C)(C)C (stereo not drawn)
    4.0%	-1.1	12.1%	24.0%	-4.8	1.3%	-1.4%
> COc1ncc2nc(-c3ccccc3)c(=O)n(Cc3cccs3)c2n1
    x	-2.2	x	-13.5%	x	x	1.3%
> O=C(Nc1ccccc1N1CCN(C(=O)c2ccc(Cl)cc2)CC1)c1cccc([N+](=O)[O-])c1
    14.7%	x	-11.0%	12.3%	u	0.2%	-1.0%
> O=C(c1ccncc1)N1CCC2(CC1)CN(c1ccccn1)C2
    x	2.3	x	-3.8%	x	x	-0.5%
> Cc1c(C)c2ccc(OC3CCCCC3=O)cc2oc1=O (stereo not drawn)
    -36.7%	0.1	9.2%	9.8%	-1.1	28.2%	-1.1%
> CS(=O)(=O)Nc1ccc(C(=O)NCCSCc2ccco2)cc1
    4.5%	-1.6	5.2%	-11.0%	1.7	-5.9%	0.3%
> FC(F)(F)Oc1ccc(NC(=S)NCc2ccccc2)cc1
    3.0%	-0.4	6.2%	7.7%	-0.7	x	u
> O=C1NCCCC2c3c(cc(Br)c(O)c3Br)OC12N1CCCCC1 (stereo not drawn)
    -0.3%	0.3	-10.4%	-13.5%	3.3	-2.1%	-1.5%
> C=CCOc1cccc(/C=N/NC(=O)C(OC)c2ccccc2)c1 (stereo not drawn)
    21.7%	2.4	-7.1%	u	-4.8	x	0.6%
> Cc1cccc(N2C(=O)CC(N(C(=O)c3ccco3)c3cccc(C)c3)C2=O)c1 (stereo not drawn)
    -7.6%	3.1	-4.8%	5.6%	-2.3	1.3%	7.4%[38.3 µM]
> COc1ccc(CNC(=O)CCC(=O)n2ncc3cc(C)ccc32)cc1
    -23.7%	0.9	-9.1%	-6.0%	-4.3	-6.2%	3.0%
> COc1cc([N+](=O)[O-])ccc1NC(=O)CCN1C(=O)C2C3CCC(C3)C2C1=O (stereo not drawn)
    -5.4%[15.4 µM]	0.7	7.6%	3.4%	4.5	1.8%	1.2%
> CCOC(=O)CSc1cc(C)nc(N)n1
    -1.9%	2.2	5.9%	6.1%	0.5	-0.2%	-0.8%
> NC(=O)c1ccccc1NCC(=O)c1ccc(Cl)cc1
    13.8%	-2.0	-8.4%	-8.3%	-13.6	x	2.8%
> COc1ccc(N2CCN(CCNC(=O)CCCn3c(=O)[nH]c4cc(Cl)ccc4c3=O)CC2)cc1
    0.0%	1.6	7.8%	3.0%	-0.8	28.2µM*	0.0%
> COc1cccc(NC(=O)CN(C)C(=O)c2ccc3c(c2)C(=O)N(CCC(C)C)C3=O)c1
    14.7%	x	-12.6%	x	1.9	-0.5%	1.0%
> O=c1oc(-c2ccccc2NS(=O)(=O)c2ccc(F)cc2)nc2ccccc12
    -18.2%[15.4 µM]	-0.8	5.1%	13.5%	-0.4	0.1%	0.4%
> COCCN(C(=O)CNC(=O)c1cccs1)C(C(=O)NC1CCCCC1)c1ccco1 (stereo not drawn)
    -14.9%	3.5	-1.0%	-4.7%	-5.2	0.6%	0.4%
> COc1ccc(C(NC(C)=O)c2ccc3cccnc3c2O)c(OC)c1 (stereo not drawn)
    -5.7%	0.3	6.9%	5.7%	0.5	-1.9%	0.1%
> Cc1cc(NS(=O)(=O)c2ccc(NC(=O)CCCC(=O)O)cc2)nc(C)n1
    -26.4%	-2.0	7.9%	5.7%	0.2	-0.6%	-0.9%
> CCOc1ccc(CNCCCSc2ncccn2)cc1
    1.6%	3.8	12.8%	1.3%	-1.8	x	-1.9%
> CC(C)[C@H](NC(=O)c1ccco1)C(=O)OCC(=O)Nc1cccc(F)c1
    -9.8%[15.4 µM]	-1.4	1.0%	14.8%	3.1	x	-0.9%
> O=C(OCc1nc2scc(-c3ccccc3)c2c(=O)[nH]1)c1cc(Cl)ccc1[N+](=O)[O-]
    u	7.5	-9.4%	1.0%	1.5	u	-2.8%
> S=C(NCCc1ccccc1)N1CCN(Cc2ccc(Cl)c(Cl)c2)CC1
    -235.0%[inhibitor]	7.2	5.2%	14.9%	5.0	-0.5%	3.0%
> COc1ccc(C(C)C)cc1S(=O)(=O)Nc1cccnc1
    -404.7%[inhibitor]	x	x	x	-0.4	1.2%	1.7%
> CC(C)CCNC(=O)CNC(=O)c1cccs1
    -13.4%	1.7	11.6%	15.5%	-3.3	-2.5%	3.3%[38.3 µM]
> CCCC1(C(=O)O)NC(c2ccccc2O)C2C(=O)N(c3cccc(Cl)c3)C(=O)C21 (stereo not drawn)
    -28.9%	2.8	2.9%	-21.9%	-1.0	0.6%	0.9%
> COc1ccccc1CN(Cc1cc2c(C)ccc(C)c2[nH]c1=O)Cc1nnnn1Cc1ccco1
    -11.6%	13.6	-10.9%	20µM*	-3.8	-20.3%	-0.8%
> NC(=O)c1ccsc1NC(=O)CN1C(=O)NC2(CCCC2)C1=O
    u	x	7.6%	x	-3.8	-1.1%	1.1%
> CCc1nnc(SCc2ccc([N+](=O)[O-])cc2)nc1CC
    7.7%	x	7.1%	x	-2.1	-1.9%	1.2%
> Cc1ccccc1C(C(=O)NC1CCCCC1)N(C(=O)CNC(=O)c1ccco1)c1cccnc1 (stereo not drawn)
    10.2%	4.4	7.3%	6.9%	-3.6	x	7.0%
